# Source: PubChem (Broad Institute)
# Calb FLC – affects C. albicans growth with fluconazole; 300,000 compounds, 0.57% hits; C. albicans CaCi-2 (fluconazole-resistant clinical isolate) + fluconazole, Alamar Blue growth, 48 h; growth inhibition, % (no concentration beside the values);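 active = most replicates above 75%; inconclusive = exactly half above 75%; inactive = most below 75%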;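 also: all wells also contain fluconazole at 8 µg/ml as a sub-toxic cotreatment; 0% = median of DMSO wells and 100% = median of geldanamycin control wells; wells of about 8 µL received 7.5 nL stock; the first replicate is given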
# Ecoli rRNA inh – inhibitors of bacterial rRNA selective over humanized ribosomes; E. coli WT GFP vs humanized-ribosome RFP mutants, fluorescence, 24 h; active compounds read low; DMSO median 0, no signal -100; 350,000 compounds, 1.6% hits; GFP signal change (wild-type ribosome), % (concentration not given with the values);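 active = significant combined selectivity score with lowered wild-type GFP, culture density cut under 30%, mutant RFP and density less affected; inactive = any of these conditions unmet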; also: one replicate is shown; some compounds called inactive have numbers as strong as hits
# FGF22 binding – shifts melting point of recombinant human FGF22; Q9HCT0; recombinant FGF22 thermal shift, SYPRO orange fluorescence; percent of sucrose octasulfate shift, DMSO zero; calls only at 9.99 µM; 340,000 compounds, 1.5% hits; AID 651658;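 active = melting point raised past a set limit in the mean and every replicate; inconclusive = no clear call; three in four hits are not shown here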
# Target sequence (Q9HCT0 whole entry, looked up): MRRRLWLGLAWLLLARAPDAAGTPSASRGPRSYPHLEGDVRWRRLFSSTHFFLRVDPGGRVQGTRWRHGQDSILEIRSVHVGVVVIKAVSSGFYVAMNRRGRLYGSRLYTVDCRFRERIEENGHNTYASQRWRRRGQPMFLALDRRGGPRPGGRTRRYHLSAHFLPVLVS
# AF4-AF9 inh – blocks AF4 peptide binding to human AF9. P42568. AlphaScreen, biotin-AF4 peptide binding to FLAG-AF9. inhibition, % at 10 µM. 350,000 compounds, 0.47% hits. AID 651704;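 active = every replicate reaching a set inhibition limit, whatever the replicate mean, cut at about 25% in these data; inconclusive = mean inhibition reaches that limit but some replicates miss it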;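 also: 0% = plate neutral control median and 100% = total signal loss; the record names both 10 and 1 µM as test concentration; the first replicate is given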
# Target sequence (P42568 whole entry, looked up): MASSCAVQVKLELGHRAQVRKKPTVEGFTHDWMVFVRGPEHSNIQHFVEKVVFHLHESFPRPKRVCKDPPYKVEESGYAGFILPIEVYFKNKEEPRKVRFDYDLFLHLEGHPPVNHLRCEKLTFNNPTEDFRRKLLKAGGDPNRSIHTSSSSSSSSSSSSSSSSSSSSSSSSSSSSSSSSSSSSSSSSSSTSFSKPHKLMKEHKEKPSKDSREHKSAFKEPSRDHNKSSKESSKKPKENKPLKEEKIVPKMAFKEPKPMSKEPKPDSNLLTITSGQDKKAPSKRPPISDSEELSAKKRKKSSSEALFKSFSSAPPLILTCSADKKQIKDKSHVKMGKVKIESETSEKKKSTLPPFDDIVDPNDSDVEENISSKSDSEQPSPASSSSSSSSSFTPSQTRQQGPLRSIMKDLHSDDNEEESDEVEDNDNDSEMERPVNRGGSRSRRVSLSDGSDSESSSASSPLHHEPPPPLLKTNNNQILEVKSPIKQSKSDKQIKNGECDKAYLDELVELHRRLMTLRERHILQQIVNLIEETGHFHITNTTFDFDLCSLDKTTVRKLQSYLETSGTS
# ALR inh – blocks human ALR sulfhydryl oxidase activity. purified ALR, DTT oxidation, H2O2 HRP-luminol luminescence. inhibition, % (concentration not given with the values). 290,000 compounds, 3.8% hits. AID 485317;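 active = mean and each replicate at 75% or more; inconclusive = only one of the two met; inactive = neither met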;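 also: stock transfer was 7.5 nL into about 7.5 µL; 0% = neutral wells and 100% = wells with inactivated enzyme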
# Target sequence (P55789 whole entry, looked up): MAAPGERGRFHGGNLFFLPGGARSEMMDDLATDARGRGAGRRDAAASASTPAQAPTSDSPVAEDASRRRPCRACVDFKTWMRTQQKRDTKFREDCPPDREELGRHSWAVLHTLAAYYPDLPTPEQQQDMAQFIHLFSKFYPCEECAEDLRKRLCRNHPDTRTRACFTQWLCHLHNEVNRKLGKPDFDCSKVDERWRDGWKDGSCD
# Beta cell apopt – blocks beta cell apoptosis; INS-1E cytokine-induced death, ATP luminescence, 48 h; percent of positive-control rescue, neutral wells zero; protection from apoptosis, % (test concentration not listed); 300,000 compounds, 0.8% hits; AID 435005;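 active = all replicates at 75% or more, or half of them and the mean; inconclusive = half reach 75% but not the mean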;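 also: 0% = cytokine-treated negative control wells and 100% = positive control rescue; higher means more ATP so stronger rescue from cytokine killing; wells of about 40 µL received 100 nL stock; the first replicate is given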
# RanGTP-Imp inh – disruptors of Ran-importin-beta complex formation – biochemical, FRET, CFP-Ran, YFP-importin-beta, homogeneous, primary screen; cell-free CFP-Ran/YFP-importin-beta FRET ratio; inhibition, % (test concentration not listed); AID 2216; 300,000 compounds, 1.1% hits;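 active = most replicates above 15%; inconclusive = exactly half above 15%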;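 also: 0% = DMSO wells and 100% = Ran loaded with GDP instead of GTP; wells of about 40 µL received 100 nL stock; the first replicate is given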
# T cruzi repl – blocks replication of Trypanosoma cruzi. T. cruzi beta-gal in NIH3T3, luminescence, 90 h. inhibition, % (no concentration beside the values). 300,000 compounds, 1.4% hits;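 active = mean inhibition across valid replicates above about 55%, limit read from the data; inconclusive = mean below that limit but half or more replicates reach it; inactive = mean below it, under half of replicates reach it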;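 also: signal also drops with host cell toxicity which is not excluded here; 0% = plate median of DMSO wells and 100% = zero luminescence signal; higher percent means less beta-gal luminescence so fewer parasites; stock transfer was 50 nL into about 50 µL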
# Ecoli rRNA inh OD600 – also measured in Ecoli rRNA inh; calls as there; OD600 change, %; measured here: OD600 growth;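 optical density of the mix in the first replicate; 0 = DMSO median and -100 = no signal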
# Ecoli rRNA inh RFP – also measured in Ecoli rRNA inh; calls as there; RFP signal change, %; measured here: RFP humanized mutant strains;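 first replicate; 0 = DMSO median and -100 = no signal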
# * = called active by the depositor; i = inactive; ? = inconclusive; · = no result given.
SMILES,Calb FLC,Ecoli rRNA inh,Ecoli rRNA inh OD600,Ecoli rRNA inh RFP,FGF22 binding,AF4-AF9 inh,ALR inh,Beta cell apopt,RanGTP-Imp inh,T cruzi repl
CCOc1ncccc1C(=O)OCc1c(Cl)cccc1Cl,6,·,·,·,·,·,·,-18,-1.0,-4
CC(C)(C)n1nnnc1C(c1cccc(C#N)c1)N1CCN2CCCC2C1 (stereo not drawn),-19,·,·,·,·,·,-6,-5,-3.3,-11
Cc1cccc(NS(=O)(=O)c2csc(C(N)=O)c2)c1C,-3,-2,-3,2.0,i,0.5,-9,-4,-1.1,-12
CCOC(=O)C1=C(C)C2C3C(=O)N(c4ccc(C)cc4C)C(=O)C3C1(C)C1C(=O)N(c3ccc(C)cc3C)C(=O)C21 (stereo not drawn),-7,·,·,·,·,·,-3,·,-1.5,3
COc1ccc(C(=O)N/C(=C\c2cccs2)C(=O)N2CCN(C)CC2)cc1OC,-14,4,12,-2.4,i,-0.3,13,-2,4.0,-26
CCCn1c(N)c(C(=O)CSc2nc3ccccc3c(=O)n2Cc2ccccc2)c(=O)[nH]c1=O,3,6,-2,-1.4,i,-1.7,-1,5,1.5,-1
O=c1[nH][nH]cc1C=NCc1cccnc1,-8,12,16,2.1,·,-0.5,-9,-3,6.4,-16
CC1C(=O)CC(c2ccccc2)NC1c1ccccc1 (stereo not drawn),5,·,·,·,·,·,-4,1,0.2,2
CCC(=O)Nc1cccc(-c2nc3ncccc3o2)c1C,12,3,0,-3.3,i,-8.6,-1,-4,-2.2,-14
O=C(Cc1cccs1)NCc1cccc(F)c1,8,-2,3,-1.2,i,-3.9,-5,-4,2.9,-15
NC(=O)c1ccc(N2CCN(c3ccc(O)cc3)CC2)c([N+](=O)[O-])c1,3,·,·,·,·,·,99*,6,4.9,-48
NC(=O)COC(=O)c1ccc(Cl)c(S(=O)(=O)N(Cc2ccccc2)c2ccc(Cl)cc2)c1,18,-43,-66,7.4,·,0.6,0,-6,0.0,-1
CCCc1[nH]nc2c1C1(CCOC1C)C(C#N)=C(N)O2 (stereo not drawn),-9,·,·,·,·,·,·,1,0.8,-9
COc1cccc(NC(=O)c2cccc(N3C(=O)C4CCC(C)CC4C3=O)c2)c1 (stereo not drawn),3,-2,-5,-1.9,i,0.1,-13,·,-0.7,0
CN(C(=O)CSc1ncnc2sc(-c3ccccc3)cc12)C1CCS(=O)(=O)C1 (stereo not drawn),-44,·,·,·,·,·,66,-3,0.8,-15
CCC(C)(C)NC(=O)C(c1ccc(F)cc1)N(Cc1ccc(OC)cc1)C(=O)c1cnccn1 (stereo not drawn),-7,-8,-11,1.2,i,1.6,0,2,0.8,20
CCOc1ccc(OCC)c(NS(=O)(=O)c2ccc3c(c2)CCN3C(=O)C2CCC2)c1,-10,15,9,12,i,-1.7,-28,8,3.5,36
Cc1ccc(C)c(Nc2cc(C)nc3ccccc23)c1,-16,-13,-8,-5.6,i,-1.0,·,38,8.1,42
COc1ccc(C(=O)/C=C/Nc2ccc(S(N)(=O)=O)cc2)cc1OC,-1,3,-10,2.7,i,·,-2,4,1.0,22
Cc1c(NC(=O)Nc2cc(Cl)ccc2Cl)c(=O)n(-c2ccccc2)n1C,13,11,14,1.3,i,-1.2,-1,-3,-3.3,-6

# Reprinted from the results shown for reference:
SMILES,Calb FLC,Ecoli rRNA inh,Ecoli rRNA inh OD600,Ecoli rRNA inh RFP,FGF22 binding,AF4-AF9 inh,ALR inh,Beta cell apopt,RanGTP-Imp inh,T cruzi repl
COc1ccc(C(=O)/C=C/Nc2ccc(S(N)(=O)=O)cc2)cc1OC,-1,3,-10,2.7,i,·,-2,4,1.0,22
Cc1c(NC(=O)Nc2cc(Cl)ccc2Cl)c(=O)n(-c2ccccc2)n1C,13,11,14,1.3,i,-1.2,-1,-3,-3.3,-6

# Additional records.
SMILES,Calb FLC,Ecoli rRNA inh,Ecoli rRNA inh OD600,Ecoli rRNA inh RFP,FGF22 binding,AF4-AF9 inh,ALR inh,Beta cell apopt,RanGTP-Imp inh,T cruzi repl
CSCCC(NS(=O)(=O)c1ccc(Br)cc1)C(=O)OCC(=O)NC1CC1 (stereo not drawn),4,12,9,3.1,i,-3.5,-2,-1,1.9,-9
CC1CC(C)(C)NC(=S)N1CC(=O)N1CCN(Cc2ccccc2)CC1 (stereo not drawn),7,12,2,-0.5,i,-1.4,-1,-1,-1.5,-1
CCOc1ccc(C2=Nn3c(nnc3-c3ccccc3)SC2)cc1Cl,22,·,·,·,·,·,-6,0,-5.4,6
CC(C)CCNc1nc2c(c(=O)n(Cc3cccc(F)c3)c(=O)n2C)n1C,19,·,·,·,·,·,·,7,6.2,10
CCOc1ccccc1N1CCN(C(=O)c2c(Cl)cnn2C)CC1,-1,-4,-11,-2.8,i,-0.4,73,-8,-0.7,11
O=C1NC2C(NC(=O)N2C2CCCCC2)N1C1CCCCC1 (stereo not drawn),38,15,11,-3.6,·,·,-19,-2,-2.2,-15
COC(=O)C1=C(C)NC2=C(C(=O)CC(c3cccs3)C2)C1c1ccsc1 (stereo not drawn),?,·,·,·,·,·,-7,2,?,10
CCOC(=O)N1CCC(N2C(=O)c3ccc(C(=O)Nc4ccc(OC)cc4)cc3C2=O)CC1,-2,13,20,2.7,i,-1.5,-8,-1,-4.4,-11
O=C(Nc1ccccc1)c1ccc2c(c1)OCCO2,-2,·,·,·,·,·,-7,-1,-2.3,-14
CC(=O)c1ccc(S(=O)c2ccccc2)cc1 (stereo not drawn),?,·,·,·,·,·,-2,-8,1.1,-5
CCC(C)N(C(=O)COC(=O)c1nc(Cl)ccc1Cl)C1CCS(=O)(=O)C1 (stereo not drawn),-1,8,7,5.4,i,-1.4,0,2,7.7,-4
CCN(CC(=O)Nc1ccc(OC)cc1)CC(=O)Nc1ccc(Br)cc1F,4,-15,-21,-2.2,i,-1.4,-1,8,1.2,15
COc1ccc(-c2csc(NC(=O)CSc3n[nH]c(C)n3)n2)cc1,-5,-48,-67,13,i,-3.2,·,0,1.3,-2
CN(C)S(=O)(=O)c1ccc(C(=O)NCC(=O)N/N=C/c2ccccc2Cl)cc1,?,11,10,0.3,i,-2.5,-8,-11,0.7,6
C=CCOc1ccc(-c2nc3c(c(=O)[nH]c(=O)n3CCCC)n2C)cc1Br,4,-21,-34,-1.6,i,-6.1,-1,5,-1.4,7
O=C1CC(N2CCSCC2)C(=O)N1c1ccccc1 (stereo not drawn),-11,22,23,2.7,·,-1.2,18,-3,-4.5,-15
Cc1sc(N)c(C(=O)c2ccccc2)c1C,-1,5,1,4.1,i,1.9,31,-1,-4.2,-8
N#Cc1c(Nc2ccccc2C(F)(F)F)s[nH]c1=O,3,14,-4,1.7,i,-7.3,13,-3,-1.4,·
S=C(NCCc1ccc(Cl)cc1)NCc1ccccc1,-3,·,·,·,·,·,-13,-4,2.8,4
O=C(c1ccc(Cl)c(S(=O)(=O)N2CCOCC2)c1)N(c1ccccn1)C1CCCCC1,-6,-17,-6,2.8,i,0.3,-5,1,2.1,11
Cc1ccc(C(C)C)c(OCC(O)CN2CCc3ccccc3C2)c1 (stereo not drawn),21,-45,-74,-11,i,6.2,-11,98*,9.7,14
Cc1ccc(C)c(-c2ccc(=O)n(Cc3ccc(F)cc3Cl)n2)c1,-7,-18,-37,2.5,i,0.8,-4,0,-4.0,6
CCOc1ccc(CCNC(=O)c2cc(C)nc3ccccc23)cc1OCC,-9,3,9,-2.0,i,2.1,-3,-6,0.1,-9
C/C(=N\NC(=O)c1cccc(S(=O)(=O)N2CCOCC2)c1)c1ccc(C)cc1,·,·,·,·,i,-1.1,1,-1,·,·
O=[N+]([O-])c1cccc(NC2=NCCC2)c1,-8,1,4,-0.1,i,-0.3,-22,-5,-2.6,13
CCOC(=O)N1CCC(NC(=O)C2CCN(C(=O)N3CC(C)Oc4ccc(C)cc43)CC2)CC1 (stereo not drawn),-2,·,·,·,·,·,·,5,-0.8,4
CC(=O)OC1CCC(OC(C)=O)c2c1n([O-])c(C)c(C)[n+]2=O (stereo not drawn),20,·,·,·,·,·,-2,-5,0.5,9
CC(C#N)(Nc1ccc(Cl)cc1)c1cccnc1 (stereo not drawn),6,·,·,·,·,·,-11,-1,-2.9,-16
CCc1cccc(C)c1NC(=S)NCc1cccn1C,7,·,·,·,·,·,-6,-2,7.5,-8
C[C@@H](C(=O)N[C@@H](Cc1c[nH]c2ccccc12)C(=O)O)n1nnc2ccccc2c1=O,5,8,3,-3.0,i,0.2,-11,-2,2.5,-6
NC(=O)CN1CCN(C2CC(=O)N(CCc3ccccc3)C2=O)CC1 (stereo not drawn),25,20,18,-1.2,i,-0.5,-1,-1,9.8,-6
Cc1csc(SCCn2c(Br)nc3c2c(=O)[nH]c(=O)n3C)n1,16,4,2,-1.7,i,0.9,-3,-4,?,-51
CCN1CCN(C(=O)c2cc3c(s2)-c2ccccc2S(=O)(=O)C3)CC1,1,3,8,-2.4,i,3.2,-29,·,8.3,-9
COCCN1CC(C(=O)NCCc2nc(C)c(C)s2)CCC1=O (stereo not drawn),2,10,13,-1.9,i,0.0,-8,7,-2.2,-23
Cc1ncc(CN2CCN(Cc3ccc(F)cc3)C(CCO)C2)s1 (stereo not drawn),-2,17,11,9.5,·,0.9,13,-2,-4.1,-5
CC(=O)NCc1ccc(-c2csc(-c3cccs3)n2)cc1,0,-10,-26,15,i,2.6,-1,4,-0.3,4
CC(C)c1ccc(NC2CCCN(C(=O)CCN3CCCO3)C2)cc1 (stereo not drawn),2,2,7,-0.5,i,7.8,67,2,-2.2,21
CCN1C(=S)SC(=O)C1=C1C=C(C)OC(C)=C1,-7,·,·,·,·,·,-5,5,-4.3,21
COCCOC(=O)c1c(C)oc2ccc(OC(=O)c3c(OC)cccc3OC)cc12,-27,·,·,·,·,·,29,-3,-1.0,-8
CCN(CC)CCCNC(=O)c1cn(CC)c2cc(N3CCN(C(=O)c4ccco4)CC3)c(F)cc2c1=O,-6,-46,-75,-15,i,2.6,2,0,-1.3,14
Cc1nc(-c2ccc(S(=O)(=O)N3CCCN(CCc4ccccc4)CC3)s2)cs1,-4,-25,-31,-6.2,·,4.5,-2,-1,-1.0,46
CN(C)S(=O)(=O)c1cccc(NC(=O)CSc2nc3c(cc2C#N)C(=O)CC(C)(C)C3)c1,50,-11,-8,0.3,i,0.6,98*,-9,-0.2,-2
O=C(Nc1cccnc1Cl)c1ccc2c(Cl)c3c(nc2c1)CCC3,-2,2,15,-3.8,i,0.9,·,·,-0.4,-9
O=C(/C=C/c1nc2ccccc2s1)N1CCCCCC1,-10,-18,-20,-4.4,·,2.7,-14,-4,5.1,9
Cc1ccc(C(=O)Nc2nc3ccc(S(C)(=O)=O)cc3s2)s1,2,·,·,·,·,·,-2,4,-0.3,-8
CCCCC(=O)Oc1ccccc1C1SCc2cc(C)c(C)cc2CS1,3,·,·,·,·,·,-8,3,-1.1,17
C=CC[N+]1(CC=C)CCOCC1,-13,11,19,-8.2,i,1.8,-10,-3,-0.6,-4
CCCCC1=CC2=C(c3ccco3)C(=O)C(C)(OC(=O)c3ccc(OC)cc3)C(=O)C2=CN1CC1CC1 (stereo not drawn),25,8,9,18,i,-3.1,2,-2,-10,2

# An excerpt. The share of hits here may be higher or lower than overall.
